LANA-nucl inh = LANA-nucleosome interaction inhibition; z-score (no concentration beside the values); FITC-LANA1-23 / chicken nucleosome fluorescence polarization; stronger effect = lower value; AID 720717; actives 0.3% (n = 51,000);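 active means both repeat wells score below -2 in polarization z-score versus plate sample wells, excluding overly bright wells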;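 further: 100 nL library stock added to about 30 µL; numbers are from one replicate; some results filed as inactive read as strong as hits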
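Material: Purified chicken nucleosomes with FITC-labelled LANA N-terminal peptide (1-23) | Reagent: 50 nM FITC-LANA1-23 probe | Medium: TEN-BT buffer, pH 7.5 | Times: 10–45 min incubation at room temperature | Detection: Fluorescence polarization | Replication: Duplicates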
BasE inh = blocks the Acinetobacter baumannii siderophore enzyme BasE. actives 0.1% (n = 84,000). AID 485350. inhibition, % (concentration not given with the values). purified BasE, fluorescence polarization binding displacement;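 active means both replicates above 25% with normal brightness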;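 further: 0% = negative plate control signal and 100% = positive plate control signal; stock transfer was 100 nL into about 30 µL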
Active calls of the source: *; / = no result given; & = joins results of further samples.

SMILES	LANA-nucl inh	BasE inh
CCc1ccc(CNC(=O)C2CCN(S(=O)(=O)N3CCCC3)CC2)cc1	-0.67	1.7
COc1ccc(OCCC(=O)NN)cc1	/	1.2
CC(C)(C)OC(=O)N1CCN(C2CC(=O)N(CCc3ccccc3)C2=O)CC1 (stereo not given)	0.45	0.9
O=C(O)CSCC(=O)Nc1ccc(Cl)cc1Cl	0.17	/
CCCCC(C)C(N)=O (stereo not given)	-0.32	-1.9
Cc1ccc(Cl)cc1N1C(=O)CC(N2CCC(C(N)=O)CC2)C1=O (stereo not given)	0.38	-2.1
NS(=O)(=O)c1ccc(CCN=Cc2ccccc2O)cc1	/	-1.0
CCOC(=O)Cn1cc(C)c(=O)[nH]c1=O	-0.88	-0.1
COc1ccc(-c2noc(CC(=O)N3CC(C)CC(C)C3)n2)cc1 (stereo not given)	0.36	-0.3
CNC(=O)C(C)SCc1ccccc1 (stereo not given)	-0.12	-1.7
Cc1noc(C)c1COc1cccc(C(=O)NC(C)C2CC3CCC2C3)c1 (stereo not given)	/	-0.4
COc1ccc(-n2c(-c3ccco3)nc3c(cnn3-c3ccc(C)c(C)c3)c2=O)cc1Cl	-0.77	0.0
NS(=O)(=O)c1ccc(Oc2ccccc2)cc1	/	-2.2
O=C(/C=C/c1ccc(Br)cc1)NCCCn1ccnc1	0.36	0.6
COc1ccc(SCc2cc3c(F)c(F)c(F)c(F)c3o2)cc1	/	2.5
CCOC(=O)N1CCN(C(=O)COc2ccc(S(=O)(=O)NCC(C)C)cc2C)CC1	2.6	-0.7
O=C(Nc1ncnc2oc(-c3ccccc3)c(-c3ccccc3)c12)c1ccccc1	/	0.3
O=C(CC1SC(=NCc2ccccc2)NC1=O)Nc1ccccc1F (stereo not given)	/	-1.1
CNC(=O)c1ccc(OCc2ccccc2)c(OC)c1	0.23	-1.5
COc1ccc(CNC2CCCCC2)cc1OC	-1.4	1.6
O=C(O)CN1C(=O)Cc2ccccc2C1=O	/	3.5
Nc1cnn(C2OC(CO)C(O)C2O)c(=O)n1 (stereo not given)	-0.27	4.0
CCC(CC)c1nnc(NS(=O)(=O)c2ccc(C)cc2)s1	-0.82	3.2
COc1cccc(CC2CC(=O)N(c3ccc4c(C)cc(=O)oc4c3)C2=O)c1 (stereo not given)	/	1.7
N#C/C(=C/C=C/c1ccc(-c2cc(Cl)ccc2Cl)o1)C(N)=S	0.024	-1.9

Reprinted from the listing (19 entries):
SMILES	LANA-nucl inh	BasE inh
CCc1ccc(CNC(=O)C2CCN(S(=O)(=O)N3CCCC3)CC2)cc1	-0.67	1.7
COc1ccc(OCCC(=O)NN)cc1	/	1.2
CC(C)(C)OC(=O)N1CCN(C2CC(=O)N(CCc3ccccc3)C2=O)CC1 (stereo not given)	0.45	0.9
O=C(O)CSCC(=O)Nc1ccc(Cl)cc1Cl	0.17	/
CCCCC(C)C(N)=O (stereo not given)	-0.32	-1.9
Cc1ccc(Cl)cc1N1C(=O)CC(N2CCC(C(N)=O)CC2)C1=O (stereo not given)	0.38	-2.1
NS(=O)(=O)c1ccc(CCN=Cc2ccccc2O)cc1	/	-1.0
CCOC(=O)Cn1cc(C)c(=O)[nH]c1=O	-0.88	-0.1
COc1ccc(-c2noc(CC(=O)N3CC(C)CC(C)C3)n2)cc1 (stereo not given)	0.36	-0.3
CNC(=O)C(C)SCc1ccccc1 (stereo not given)	-0.12	-1.7
Cc1noc(C)c1COc1cccc(C(=O)NC(C)C2CC3CCC2C3)c1 (stereo not given)	/	-0.4
COc1ccc(-n2c(-c3ccco3)nc3c(cnn3-c3ccc(C)c(C)c3)c2=O)cc1Cl	-0.77	0.0
NS(=O)(=O)c1ccc(Oc2ccccc2)cc1	/	-2.2
O=C(/C=C/c1ccc(Br)cc1)NCCCn1ccnc1	0.36	0.6
COc1ccc(SCc2cc3c(F)c(F)c(F)c(F)c3o2)cc1	/	2.5
CCOC(=O)N1CCN(C(=O)COc2ccc(S(=O)(=O)NCC(C)C)cc2C)CC1	2.6	-0.7
O=C(Nc1ncnc2oc(-c3ccccc3)c(-c3ccccc3)c12)c1ccccc1	/	0.3
O=C(CC1SC(=NCc2ccccc2)NC1=O)Nc1ccccc1F (stereo not given)	/	-1.1
CNC(=O)c1ccc(OCc2ccccc2)c(OC)c1	0.23	-1.5

(more compounds)
SMILES	LANA-nucl inh	BasE inh
COc1ccc(NC(=O)COc2ccc(C)c(C)c2)c(OC)c1	-0.21	2.4
COCCSc1nnc(NC(=O)C2CCCO2)s1 (stereo not given)	1.9	-3.0
Cc1ccc(-c2cc(C(F)(F)F)n3nc(C(=O)Nc4ccn(Cc5ccccc5)n4)cc3n2)cc1C	/	1.4
Cc1ccc(N=C2SC3(CC3)C(=O)N2c2ccc(C)cc2)cc1	/	3.5
O=C1C=C(NCc2ccc(Cl)cc2)CC(c2ccco2)C1 (stereo not given)	-0.29	0.5
O=C(Oc1nsnc1N1CCOCC1)N1CCCCC1	-0.51	-0.3
O=C1CC(C(=O)N2CCCC2)CN1CCc1ccc(F)cc1 (stereo not given)	-1.5	-0.6
COC(=O)CC(c1ccc(Br)cc1)n1cccc1 (stereo not given)	0.053	/
CCN(CC(=O)N1CCCCC1)S(=O)(=O)c1ccccc1	-0.51	1.4
Cc1ccc(S(=O)(=O)N(Cc2ccccc2)C(C#N)c2ccc3c(c2)OCO3)cc1 (stereo not given)	/	2.4
Cc1cc(/C=C(\C#N)C(=O)N2CCc3ccccc3C2)c(C)n1C	0.74	-0.4
COCn1nc(-c2ccc(Cl)cc2Cl)oc1=S	-0.33	0.2
CC1=CC(c2ccccc2)NC(=S)N1 (stereo not given)	-0.19	1.8
COc1ccc(Cn2c(O)c(C=Nc3cc(C)on3)c3ccccc3c2=O)cc1	/	1.5
C=CCn1c(SCc2cc(=O)[nH][nH]2)nc2sc(CC)cc2c1=O	0.83	-0.1
COc1ccccc1-n1c(SC(C)C(N)=O)nc2ccccc2c1=O (stereo not given)	/	-5.2
CC(=O)OC[C@H]1O[C@@H](n2cnc3c(=O)[nH]c(N)nc32)[C@H](OC(C)=O)[C@@H]1OC(C)=O	0.0055	2.0
c1csc(C2=Nn3c(Cn4nnc5ccccc54)nnc3SC2)c1	0.065	1.1
CC(C)N(C(=O)Cn1nnc2c(cnn2-c2ccccc2)c1=O)C(C)C	-0.79	0.6
OC(COc1ccc(-c2ccccc2)cc1)CN1CCOCC1 (stereo not given)	/	-0.8
COc1cc(OC)cc(C(=O)NC(C)c2ccccc2)c1 (stereo not given)	/	-0.2
O=S(=O)(Nc1cccnc1)c1ccc2[nH]c3c(c2c1)CCCCC3	/	0.7
N#CCOC(=O)/C=C/c1cn(Cc2ccccc2)nc1-c1cccs1	/	-1.2
O=C1NCCCC1C(=O)Nc1ccncc1 (stereo not given)	1.7	-2.5
COCCN(Cc1nc2ccccc2c(=O)[nH]1)C(=O)C1CCCN1C(=O)c1cccs1 (stereo not given)	/	2.9
The listing continues:
SMILES	LANA-nucl inh	BasE inh
COc1cc(-c2cc(C(=O)NCCCO)c3ccccc3n2)cc(OC)c1OC	/	-8.5
CCS(=O)(=O)c1ccc2oc(=O)c(/C=C(\O)c3oc(C)nc3C)nc2c1	/	-2.4
O=C(CC(C(=O)c1ccccc1)c1cccs1)c1ccc(Cl)cc1 (stereo not given)	/	0.1
CCN1CCN(C(=O)c2ccc(C#N)cc2)CC1	/	2.6
CC(Oc1ccc(C(C)(C)C)cc1)C(=O)N1CCN(Cc2ccc3c(c2)OCO3)CC1 (stereo not given)	-1	-0.1
COc1cccc(C(c2sc3ncnn3c2O)N2CCC(C)CC2)c1 (stereo not given)	-0.35	-1.0
Cc1cccc(-c2nc3ccccc3c(=O)n2OC(=O)c2ccc(C)c(C)c2)c1	/	1.7
NC(=O)CSc1nc(-c2ccccc2)nc2c1CCCC2	-0.022	-1.8
COc1ccccc1N(CC(O)Cn1ccnc1C)S(=O)(=O)c1ccc(C)cc1 (stereo not given)	0.11	-4.0
C/[N+]([O-])=C\c1ccc(-c2ccccc2)cc1	/	-1.4
CCc1ccc2[nH]c(=O)c(CN(Cc3ccco3)C(=O)Nc3ccccc3)cc2c1	-0.44	1.3
CCOC(=O)C1=C(CNC(C)C)NC(=O)NC1c1ccccc1 (stereo not given)	-0.096	-0.9
O=C(O)c1cc(=O)c2ccccc2[nH]1	-0.42	-1.9&1.0
CC(C)CNC(=O)CSc1ccc2c(c1)OCCO2	/	-1.5
CCN(CCO)C(=S)Nc1cc(C(=O)OC)ccc1C(=O)OC	-0.74	3.7
CCC(Sc1nnnn1-c1ccccc1)C(=O)N1c2ccccc2Sc2ccccc21 (stereo not given)	/	-2.1
CSc1c(C#N)c(N)c(C#N)c2c1COC(C)(C)C2	0.51	4.1
CCCN1C2CCCC1CC(NC(=O)c1cc(OC)c(OC)c(OC)c1)C2 (stereo not given)	-0.1	-2.9
CC(C#N)Sc1nnc(-c2cccc(S(=O)(=O)Nc3ccccc3Cl)c2)n1-c1ccccc1 (stereo not given)	/	0.8
O=C(NCCS(=O)(=O)N1CCCC1)c1ccc2c(c1)OCO2	0.35	1.1
CN(C(=O)CSc1nc2c(c(=O)[nH]1)CCC2)C1CCCCC1	0.0095	-0.8
CC(C)(CNC(=O)c1cccc(S(=O)(=O)N2CCOCC2)c1)N1CCOCC1	/	3.0
O=C(COc1cc(Cl)c(Cl)cc1Cl)NCCN1C(=O)CSC1=O	/	-1.2
O=C(c1cc2sccc2n1Cc1ccccc1)N(Cc1ccco1)Cc1cccs1	0.08	-0.1
CC(C)=CCc1c2c(c3occ(-c4ccc(O)c(O)c4)c(=O)c3c1O)C=CC(C)(C)O2	2.6	-1.7
Further compounds follow:
SMILES	LANA-nucl inh	BasE inh
COC(=O)c1ccc(NC(=O)N2CCC(N(C)Cc3cccc(Cl)c3)CC2)cc1	0.12	2.2
O=C1c2ccccc2S(=O)(=O)N1C(=O)c1c(Cl)nc2sccn12	/	0.1
COc1ccccc1-c1cc(-c2cccs2)nc(C)c1C#N	-0.43	/
CCOC(=O)c1c(C)oc2c1c(C=Nc1cccnc1)c(O)c1ccccc12	/	8.4
O=C(NCC1CCCO1)C1CCN(C(=O)c2ccc(Br)cc2)CC1 (stereo not given)	-0.35	1.4
CSC1=NC(=O)/C(=C/c2ccccc2C(F)(F)F)S1	-0.79	/
CCc1nonc1NC(=O)COc1ccccc1OC	0.27	-1.2
CCOC(=O)C1CCN(CC(=O)N2C(C)CCCC2C)CC1 (stereo not given)	-0.85	-0.3
CS(=O)(=O)N1CCN(C2CCCCC2)CC1	0.11	-0.7
CC(=O)Nc1ccccc1OCc1cc(=O)n2nc(C)sc2n1	1.7	-0.5
CC(C)N(C(=O)c1cc2sccc2n1Cc1ccc(F)cc1)C(C)C	-0.37	2.1
O=C(NCc1nc(-c2ccccc2)no1)Nc1ccccc1	1.4	-0.7
CC(=O)N[C@@H](CC(C)C)C(=O)N[C@@H](CC(C)C)C(=O)N[C@H](C=O)CCCN=C(N)N	-0.48	-1.0
Cc1cc(C)n(CCCNC(=O)CSc2nnc(-c3c[nH]c4ccccc34)o2)n1	/	-1.7
FC(F)(F)c1cccc(-c2nc(-c3ccncc3)no2)c1	0.51	/
COC(=O)c1cc(N)ccc1N1CCOCC1	-0.57	-0.8
N#CC1(C(=O)O)CN(CCc2ccc(Cl)cc2)CN(CCc2ccc(Cl)cc2)C1	/	1.2
N#CCC(=O)Nc1nccs1	-0.12	2.2
O=C(Nc1ccccc1)Oc1cccc(Cl)c1	/	5.8
O=C(OCc1ccc(F)cc1)c1ccc(-n2cnnn2)cc1	/	-0.4
O=C(NCCCCCCNC(=O)ON=C1CCCCC1)ON=C1CCCCC1	-0.082	1.1
C#CCn1c(=NC(=O)C2=COCCO2)sc2ccccc21	2.3	-2.6
Cc1cc(C)nc(NS(=O)(=O)c2ccc(-n3c(Cn4ncc5ccccc5c4=O)n[nH]c3=S)cc2)n1	2	-1.7
CCOc1ccc(Nc2cc(C(=O)NCC(OC)OC)c3ccccc3n2)cc1	1.1	3.5
NCCCCC(=O)O	0.24	-0.5
More structures follow.
SMILES	LANA-nucl inh	BasE inh
O=C1CCNc2cc3ccccc3cc21	-0.72	12
OC(CNCCc1ccc(F)cc1)c1ccccc1 (stereo not given)	/	-1.6
CN(C(=O)COC(=O)c1ccc2c(c1)OCCO2)c1ccccc1	/	-0.1
CCNc1ccc(S(=O)(=O)C(F)(F)F)cc1NC(=O)Cc1ccccc1	/	-0.8
CCCCN1C(=O)/C(=C2/C(=O)N(C)c3ccccc32)SC1=S	-1.5	2.7
COc1ccc2c(CC(=O)OCc3cc(=O)n4c5c(sc4n3)CCCC5)coc2c1	/	0.1
CCOC(=O)Nc1ccc2c(CNC3CCCCC3)cc(=O)oc2c1	/	-1.9
CCOc1ccc(N2C(=O)Nc3ccccc3C2(O)C(=O)N2CCCC2)cc1 (stereo not given)	1.8	-3.8
CCOC(=O)c1c(C)oc2ccc(OCC)cc12	/	-2.1
COc1ccc(S(=O)(=O)N2CCC(C(=O)Nc3c(F)cccc3F)CC2)cc1OC	1.1	-5.4
CC(=O)N1c2ccc(S(=O)(=O)N3CCC(C(=O)NC4CCCC4)CC3)cc2CC1C (stereo not given)	-1.1	-1.3
O=C(CCC1CCCC1)N1CCN(C(=O)Cc2ccccc2)CC1	-0.24	1.3
CC(C)(C)OC(=O)N1CCC(CNS(=O)(=O)c2cccc3cccnc23)CC1	/	-1.0
CC(C)(C)SCC(=O)Nc1cccc2ncccc12	/	-2.1
O/N=C/c1ccc[n+](C/C=C/c2ccccc2)c1	/	0.9
CCCn1nc(C(=O)N(C)CCOc2ccccc2)c2ccccc2c1=O	/	0.8
CCOC(=O)N1CCC(N2CCCC(CO)C2)CC1 (stereo not given)	-0.95	2.3
CC(C)CC(C(=O)Nc1cccc(C(F)(F)F)c1)N1C(=O)c2ccccc2C1=O (stereo not given)	/	1.8

Compound activity: PubChem, ICCB-Longwood Screening Facility, Harvard Medical School

This is a subset. The share of hits here may be higher or lower than overall.
